# Vif A3G – inhibitors of Vif binding to APOBEC3G peptide, primary screen, biochemical, TR-FRET, GST-Vif 1-94, biotin-A3G peptide, dose response retest (AID 1117319) | TR-FRET GST-Vif / biotin-A3G peptide binding; higher % means a stronger effect; test concentration not given here; strong numbers were not always called active | one-dose inhibition, %; IC50 in µM for titrated hits | hit rate 0.57% among 260,000;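 active means above the screen mean plus three standard deviations and confirmed in dose response; inconclusive means results disagree or hit not tested in dose response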;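 further: Vif residues 1-94 fused to GST binding biotinylated APOBEC3G peptide 110-148; 0% = full assay without inhibitor and 100% = GST in place of GST-Vif; retest series ran down from 100 µM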
# LANA-H2B inh – blocks KSHV LANA binding to histone H2A/H2B | cell-free LANA-H2A/H2B peptide, fluorescence polarization | inhibition, % (test concentration not listed) | hit rate 0.6% among 320,000 | AID 2629; in the data active means inhibition mostly above about 10%, no sharp cut-off; inactive means mostly below about 6.7%;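 further: stock transfer was 7.5 nL into about 10 µL; 0% = median of vehicle wells and 100% = median of positive control wells; one replicate is shown; the record names a cut of 25% in any replicate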
# B2AR ag – agonists of human beta-2 adrenergic receptor inducing internalization; P07550; Am2.2-beta2AR cells, FAP receptor internalization, flow cytometry; reference of the scale not given here; response, % (concentration not given with the values); hit rate 0.43% among 340,000; AID 504454;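 active means response above a set limit, near 3 SD of response in nonfluorescent compounds, cut at about 42% in these data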;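 further: stock transfer was 100 nL into about 11 µL; a reference agonist was the positive control; negative values mostly stem from fluorescent compounds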
# Ecoli growth – E. coli growth inhibition; Escherichia coli growth, OD600, 23 h; hits give low values; OD600 absorbance (no concentration beside the values); hit rate 0.21% among 330,000; AID 1053175;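 active means OD600 absorbance below the run mean of sample wells minus 3.6 SD, in any replicate, cut at about 0.56 in these data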;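 further: stock transfer was 300 nL into about 60 µL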
# UCH37 inh – human UCH37 deubiquitinating enzyme inhibition | purified proteasome/UCH37, Ub-AMC cleavage fluorescence | AID 588478 | inhibition, % (concentration not given with the values) | hit rate 0.33% among 330,000 | Q9Y5K5;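 active means mean of two replicates above 20%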;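 further: 0% = compound-free wells with enzyme and 100% = wells lacking proteasome; stock transfer was 100 nL into about 20 µL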
# Target sequence (Q9Y5K5 whole entry, looked up): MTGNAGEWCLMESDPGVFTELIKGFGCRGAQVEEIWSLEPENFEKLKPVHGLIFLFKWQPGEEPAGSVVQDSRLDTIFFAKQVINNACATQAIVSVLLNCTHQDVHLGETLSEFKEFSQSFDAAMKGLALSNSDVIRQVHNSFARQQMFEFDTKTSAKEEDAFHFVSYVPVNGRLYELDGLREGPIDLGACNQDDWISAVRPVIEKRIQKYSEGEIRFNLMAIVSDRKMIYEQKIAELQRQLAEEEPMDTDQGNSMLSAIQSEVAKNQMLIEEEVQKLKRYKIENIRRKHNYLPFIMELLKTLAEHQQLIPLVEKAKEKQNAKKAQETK
#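 Material: human UCH37 enzyme supplied as purified proteasome complex / Amount: 0.15 nM proteasome as dispensed / Buffer or medium: pH 7.4 Tris-HCl (50 mM) with ovalbumin, ATP-MgCl2, DTT / Times: preincubation 30 min, reaction 25 min, room temperature / Technique: AMC fluorescence from Ub-AMC cleavage, excitation 355 nm, emission 460 nm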
# HNF4A DNA FP – change in binding of human HNF4 alpha to DNA; P41235; HNF4a-FITC DNA binding, fluorescence polarization, 1 h; activity change, % at 10 µM; hit rate 0.3% among 360,000; AID 1224865; in the data active means activity change above about 30%, passing the limit was not always enough;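 further: controls were the assay level and a saturating level of protein; the project sought stronger binding though the title names inhibitors; some compounds called inactive have numbers as strong as hits; positive values seem to mean higher polarization but the record does not say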
# Target sequence (P41235 whole entry, looked up): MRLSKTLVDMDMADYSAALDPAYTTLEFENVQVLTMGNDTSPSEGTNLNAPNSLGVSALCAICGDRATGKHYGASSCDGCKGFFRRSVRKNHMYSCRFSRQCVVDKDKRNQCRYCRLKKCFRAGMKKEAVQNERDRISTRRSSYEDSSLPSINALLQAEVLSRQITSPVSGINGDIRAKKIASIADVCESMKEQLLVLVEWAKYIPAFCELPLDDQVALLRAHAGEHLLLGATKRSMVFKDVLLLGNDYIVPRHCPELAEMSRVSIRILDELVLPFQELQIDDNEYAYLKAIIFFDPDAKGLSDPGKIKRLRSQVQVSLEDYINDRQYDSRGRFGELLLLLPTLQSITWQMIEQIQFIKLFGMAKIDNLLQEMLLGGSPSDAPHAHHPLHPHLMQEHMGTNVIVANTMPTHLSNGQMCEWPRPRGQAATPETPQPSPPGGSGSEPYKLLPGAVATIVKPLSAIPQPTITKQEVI
# Bfl-1 A1 inh – inhibitors of the anti-apoptotic protein A1, read as caspase activation; hit rate 0.066% among 330,000; caspase activation, % (concentration not given with the values); MEF A1-2A-BIM cells, Caspase-Glo 3/7 luminescence, 3 h; percent of clofoctol response, vehicle zero;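 active means over half of replicate activation scores above 10%, or exactly half above 10 with the replicate mean above 10; inconclusive means replicate mean below 10 yet half the replicates above 10; inactive means over half of replicates below 10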;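 further: wells of about 30 µL received 50 nL stock; many hits fall short of the cut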
# * marks the source's active call; other numbers are inactive results; i = inactive; ? = inconclusive; · = not tested or not shown; & = joins results of further samples.
SMILES,Vif A3G,LANA-H2B inh,B2AR ag,Ecoli growth,UCH37 inh,HNF4A DNA FP,Bfl-1 A1 inh
CN(C(=O)CSc1ncnc2sc(-c3ccccc3)cc12)C1CCS(=O)(=O)C1 (stereo not given),-85%,-5.8,-3,0.67,0.0,4.0,-0.5
CC(=O)Nc1cccc(NC(=O)CCNC(=O)c2ccc(Cl)cc2)c1,-1%,0.0,10,0.71,1.6,1.7,0.6
Cc1ccc2cc(C#N)c(NCCCNC(=O)C3CCCO3)nc2c1 (stereo not given),?,1.2,4,0.71,-183,4.9,-0.1
CCC(=O)Nc1nc(C)c(-c2csc(Nc3cccc(O)c3)n2)s1,·,1.3,26,0.6,-14,3.5,-1.5
CCCCOC(=O)Nc1ccc(S(=O)(=O)Nn2cnnc2)cc1,-5%&1%,0.7,10,0.68,1.8,6.8,-0.5
COc1ccc(C2Nc3ccccc3C(=O)N2Cc2ccccc2)cc1CN1CCOCC1 (stereo not given),-6%,9.4,-7,0.62,-376,1.8,0.3
O=C(NCCc1ccccn1)C1CC(=O)N(Cc2ccccc2Cl)C1 (stereo not given),9%,-3.0,-1,0.72,5.8,0.4,-0.2
CC1(C(=O)N/N=C/c2cc3c(cc2Br)OCO3)CC1(Br)Br (stereo not given),24%,-1.9,5,·,·,4.1,0.4
CCS(=O)(=O)c1ccc2oc(Nc3cc(Cl)ccc3OC)nc2c1,·,-1.3,8,0.68,4.2,9.1,-2.3
O=C(O)c1cc(-c2ccccc2)nn1CC1CC(c2cccc([N+](=O)[O-])c2)=NO1 (stereo not given),·,2.4,·,0.66,0.4,·,0.7
Cc1cc(NC(=O)COc2ccc([N+](=O)[O-])cc2)no1,-7%,-4.1,2,0.67,2.9,0.1,1.1
COc1ccc(C2Nc3ccccc3C(=O)N2c2ccc(Cl)cc2)cc1Cn1cc([N+](=O)[O-])cn1 (stereo not given),71%,1.4,13,0.75,-4.4,0.7,-0.3
C/C(Cc1ccccc1)=N\NC(=O)CNC(=O)c1ccc(Cl)cc1,·,3.4,-21,·,·,-1.4,0.3
O=C(CN1C(=O)c2ccccc2S1(=O)=O)NCCSCc1c(F)cccc1Cl,-1%,-0.5,-14,0.7,3.7,-1.5,1.1
O=C(OC(C(=O)NCc1cccs1)c1ccccc1Cl)c1ccco1 (stereo not given),50%,-5.3,-5,0.69,5.3,2.1,1.3
O=C(Nc1ccccc1C(=O)Nc1ccc(Cl)cc1)c1cccnc1,-1%,-2.1,-6,0.67,-0.3,0.1,2.0
COc1ccccc1NC(=S)NC(=O)/C=C/c1cccs1,-3%,-2.5,12,0.71,9.5,-6.7,1.1
CC1(C)CC(NC(=O)c2ccccc2C(=O)NC2CC(C)(C)NC(C)(C)C2)CC(C)(C)N1,6%,3.8,1,0.74,4.2,-0.9,-0.1
Cc1cc(C)c2nc(SC(C)C#N)cc(C)c2c1 (stereo not given),-7%,0.7,-4,0.68,-1.3,0.8,-0.4
CN(C)CCNC(=O)Cn1nc(C(F)F)cc1C1CC1,12%,-2.2,4,0.61,1.7,8.1,0.4
COc1ccccc1NC(=S)NNC(=O)c1ccccc1Br,31%,0.0,2,0.68,2.8,-1.2,-0.5
Cc1cc(=O)oc2cc(OC(C)C(=O)Nc3nccs3)ccc12 (stereo not given),2%,4.1,-5,0.68,-6.3,5.5,0.5
O=C(Oc1ccccc1Cl)c1ccccc1P(=O)(O)O,5%,-2.0,6,0.66,2.9,0.8,0.6
CS(=O)(=O)Nc1ccc(C(=O)N2CCc3ccccc3C2)cc1,0%,-1.2,17,0.65,1.2,-0.5,-1.2
CSc1cccc(CNC(=O)CC2C(=O)NCCN2CC(C)(C)C)c1 (stereo not given),·,5.2,-2,0.66,-17,0.4,-0.1

# The final five entries of the section above lead into the next.
SMILES,Vif A3G,LANA-H2B inh,B2AR ag,Ecoli growth,UCH37 inh,HNF4A DNA FP,Bfl-1 A1 inh
COc1ccccc1NC(=S)NNC(=O)c1ccccc1Br,31%,0.0,2,0.68,2.8,-1.2,-0.5
Cc1cc(=O)oc2cc(OC(C)C(=O)Nc3nccs3)ccc12 (stereo not given),2%,4.1,-5,0.68,-6.3,5.5,0.5
O=C(Oc1ccccc1Cl)c1ccccc1P(=O)(O)O,5%,-2.0,6,0.66,2.9,0.8,0.6
CS(=O)(=O)Nc1ccc(C(=O)N2CCc3ccccc3C2)cc1,0%,-1.2,17,0.65,1.2,-0.5,-1.2
CSc1cccc(CNC(=O)CC2C(=O)NCCN2CC(C)(C)C)c1 (stereo not given),·,5.2,-2,0.66,-17,0.4,-0.1
CC(OC(=O)C1CCN(S(=O)(=O)c2ccc(C(C)(C)C)cc2)CC1)C(=O)N1CCOCC1 (stereo not given),·,1.8,-8,·,·,2.5,0.4
S=c1[nH]nc(-c2ccc(Br)cc2)n1Cc1ccccc1,-9%,-2.0,-3,0.68,4.0,1.4,0.2
CN(CCO)S(=O)(=O)c1ccc2c(c1)C(=NO)c1cc(S(=O)(=O)N(C)CCO)ccc1-2,-4%,0.8,5,0.7,-40,-5.7,0.1
O=C(O)C1C2CCC(C2)C1C(=O)N1CCCC1 (stereo not given),-1%,1.9,2,0.7,5.2,0.0,0.4
COc1ccccc1NC(=O)c1cccc(S(=O)(=O)N2CCN(c3ccccc3)CC2)c1,3%,-2.1,-12,0.75,1.1,-2.5,-0.6
COc1ccc(CCC(=O)Nc2ccc(N3CCOCC3)cc2)cc1,2%,2.0,8,0.69,0.1,-1.8,0.5
Cc1ccc(-n2ncc3c(NCc4ccco4)ncnc32)cc1C,-3%,-3.3,-1,0.72,3.9,0.2,0.1
Cc1ccc(NC(=S)N2CCC(NC(=O)C3CCCCC3)CC2)cc1C,-1%,0.7,-2,0.69,4.7,6.3,0.1
N#CCNc1ccc([N+](=O)[O-])cc1C#N,·,0.2,5,0.65,8.8,0.8,1.1
Brc1cccc(OCCCCn2cncn2)c1,·,-4.7,2,0.69,0.7,-0.8,0.2
CCNC(=O)Cc1ccc(NS(=O)(=O)c2ccc(F)cc2)cc1,21%,-2.6,11,0.68,3.7,-2.7,0.0
COc1cccc(C(=O)OCC(=O)Nc2sc3c(c2C(N)=O)CCC3)c1O,·,·,-2,0.69,2.5,-9.4,·
COCCC(=O)N1CCC(Oc2ccc(C(=O)NCc3cc(C)n(C)n3)cc2)CC1,·,-3.1,4,0.68,4.3,-4.7,-0.8
CC(C)C(NC(=O)c1ccccc1F)C(=O)Nc1ccc2c(c1)OCO2 (stereo not given),5%,5.2,-4,0.63,-0.6,-4.3,0.2
CCOc1ccc(C(=O)NCCCn2ccnc2)cc1,-2%,2.6,2,0.69,-0.1,0.0,0.3
CC(C)[C@H](NC(=O)Cc1ccccc1)C(=O)OCc1cc(=O)n2c(n1)sc1ccccc12,10%,-6.1,-14,0.72,-2.6,-20,0.1
CCOC(=O)N1CCN(S(=O)(=O)c2ccc(C)c([N+](=O)[O-])c2)CC1,-2%,4.5,11,0.68,4.3,0.0,0.0
CCN(CC(=O)N1CCCC1)S(=O)(=O)c1cc(C)ccc1OC,·,-1.7,6,0.65,0.6,2.0,1.5
Cc1ccc(CNC(=O)C(=O)NCC2OCCN2S(=O)(=O)c2ccc(C)cc2)cc1 (stereo not given),-4%,-4.1,1,0.68,-0.3,2.0,0.2
CCc1nc2ccccc2n1CC1CC1(Cl)Cl (stereo not given),-2%,4.4,-6,0.69,2.5,-0.2,1.2
O=C(/C=C/c1ccccc1)N(Cc1cccc(Cl)c1)C1CCS(=O)(=O)C1 (stereo not given),-9%,3.4,-9,0.67,4.1,7.4,1.1
Cn1c(=O)c2c(nc(SCCN3CCCCC3)n2Cc2ccccc2)n(C)c1=O,8%,1.1,-8,0.7,4.7,3.1,0.8
Cc1ccccc1-c1cc(C(=O)O)nn1CC1CC(c2cccc([N+](=O)[O-])c2)=NO1 (stereo not given),·,-1.5,-4,0.64,3.9,8.1,0.6
C=CCN(C(=O)c1csnn1)C(C(=O)NC1CCCCC1)c1ccc(F)cc1 (stereo not given),·,-5.0,7,0.65,3.4,-0.4,0.4
CN(C)/C=C(\C#N)C(=O)Nc1ccc(F)c(Cl)c1,1%,-1.5,-2,0.67,1.0,0.6,-1.8
# (listing goes on)
SMILES,Vif A3G,LANA-H2B inh,B2AR ag,Ecoli growth,UCH37 inh,HNF4A DNA FP,Bfl-1 A1 inh
COc1ccc(C(C)=O)cc1CSc1nnc(Nc2ccccc2C)s1,-12%,0.7,-2,0.69,-21,-3.5,1.9
CC(C)CNC(=O)COC(=O)c1n[nH]c2ccccc12,4%,3.5,3,·,·,1.5,-0.4
Cc1ccc(NC(=O)CCCCCN2C(=O)[C@@H]3Cc4ccccc4CN3C2=O)cc1,·,6.5,-7,0.66,0.0,4.9,-0.9
CCOc1cc(/C=N/NC(N)=S)cc(Br)c1OCc1ccccc1C,-1%,1.3,11,·,·,2.0,2.0
CC(Nc1ccc2c(c1)OCCO2)C(=O)Nc1ccc2c(c1)OCO2 (stereo not given),-7%,2.1,-7,0.72,3.9,-0.2,0.0
C1CN(CC2CCN(c3nc4nonc4nc3N3CCSCC3)CC2)CCO1,-2%,1.0,4,0.71,9.9,-1.1,0.2
COc1ccc(OC)c(NC(=O)C2CC(=O)N(c3ccc(Br)cc3)C2)c1 (stereo not given),-3%&0%,-2.2,-4,0.68,2.4,1.4,0.6
O=S(=O)(c1ccc(OCC(O)CN2CCc3ccccc3C2)cc1)N1CCOCC1 (stereo not given),4%,14,29,0.67,3.8,-0.1,0.1
O=c1c(/C=C(\O)c2ccc(F)cc2)nc2ccccc2n1-c1ccccc1,3%,-3.4*,i,0.8,2.1,20,-1.7
COc1ccc(-c2csc(/C=C/c3ccc4c(c3)OCO4)n2)cc1OC,·,-4.4,2,0.73,-29,3.9,0.3
O=C1NC(O)(c2ccccc2)Oc2ccccc21 (stereo not given),·,0.2,-4,0.54,1.2,2.9,0.6
CSc1ncccc1C(=O)NCCc1ccccc1,1%,0.3,-4,·,·,5.4,0.5
C/C(=N\NC(=O)c1ccc(-n2cnnn2)cc1)c1ccc(C)cc1,2%,-5.3,7,·,·,1.9,0.5
CCOC(=O)c1c(C)[nH]c(C)c1C(=O)COC(=O)c1cccnc1OCC,·,2.8,11,0.7,3.2,-1.9,0.1
O=C(CC1Nc2ccccc2NC1=O)Nc1ccccc1 (stereo not given),4%,3.4,-3,·,·,8.0,0.0
Cc1cnc(C(=O)OCC(=O)NC23CC4CC(CC(C4)C2)C3)cn1,24%,2.6,-2,0.69,3.6,1.0,1.1
C=CCNC(=O)N1CCC(n2nccc2NC(=O)CCc2ccccc2)CC1,·,-3.8,4,0.65,-0.1,2.9,1.1
Cc1ccc(C(=O)Nc2ccc(Cl)cc2C(F)(F)F)c(Cl)c1,18%,7.4,0,0.73,3.7,1.1,-0.1
COCCNC(=O)C1CCN(Cc2cccc(OCc3ccccc3)c2)CC1,·,2.8,-2,0.67,6.9,-1.2,-0.1
O=C(NC1CCOc2ccccc21)c1ccccn1 (stereo not given),·,-1.4,5,0.71,1.8,1.4,0.7
CC(C)c1ccc(NC(=S)N2CCCC2)cc1,5%,2.5,6,0.68,3.5,3.0,0.5
COc1ccc(C(=O)Nc2cc(C)nn2-c2ccc(C)cc2)cc1,-5%,5.2,-6,0.69,3.3,-1.1,-0.1
Cc1ccc(CNC(=O)c2ccc([N+](=O)[O-])o2)cc1,0%,-0.1,3,0.65,1.7,3.6,0.7

# Screening data from PubChem.
